Screens deposited in PubChem BioAssay by National Center for Advancing Translational Sciences (NCATS).
Rango dissoc inh: inhibitors of RanGTP-induced Rango-importin beta complex dissociation. AID 540253. Potency, µM (series often up to 46.1 µM), for the others: top-dose activity change, negative = inhibition. Biochemical FRET Rango-importin beta, RanGTP-induced dissociation. 340,000 compounds, 0.071% hits. O95149+P62826; active means falling FRET ratio curve, often poorly fitted, with flat reads before Ran was added; inconclusive means other falling curves, or compound fluorescence or quenching; inactive means flat or rising ratio curve;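 further: potency means the concentration at half of the fitted maximal effect; % of control where 0% means no effect; nearly all actives have a fitted effect of over 45% in size; -100% = wells without RanGTP and RCC1; the record marks most hits as doubtful in a second field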
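Two FRET readings bracket the reaction: one 5 min after compound meets Rango–importin beta, another 45 min after RanGTP-RCC1 (0.6 uM Ran, 0.2 uM RCC1, 2 mM GTP) is added. Only the second defines inhibition.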
Rango complex inh: prevents formation of the Rango-importin beta complex | Q14974 | Rango CFP/YFP FRET sensor + importin beta, 45 min | Potency, µM (titrated, usually from 92.2 µM), for inactives: at the top dose inhibition of complex formation | 340,000 compounds, 0.031% hits | AID 540263; active = rising FRET ratio curve, often small or poorly fitted; inconclusive = mostly compound fluorescence or quenching in the first reads; inactive = flat curves in all reads;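 further: potency means the concentration at half of the fitted maximal effect; 0% = DMSO wells and 100% = buffer wells lacking importin beta; nearly all actives have a fitted effect of over 15% in size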
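FRET biosensor (snurportin 1 IBB flanked by EYFP and cerulean), 50 nM, with compound 5 min, then 0.125 microM importin beta in PBS, 1 mM DTT, 0.02% Tween-20, 0.1% BSA. CFP/YFP ratio read after 45 min at room temperature; pre-read flags interference.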
miR-21 FLuc: miR-21 reporter, rising signal; HeLa miR-21 FLuc reporter, luciferase, 48 h; Potency, µM (doses to about 38.3 µM), for inactives: at the top dose reporter change, positive = more light; 340,000 tested, under 10 active; active = well fitted rising curve with a large enough effect; inconclusive = small, poorly fitted or top-dose-only effect; inactive = no such curve, though single readings can be large or run the other way;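 further: % of control where 0% means no effect; miR-21 action dims this reporter so a rising signal means less miR-21 action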
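Using DMEM plus 10% FBS, HeLa miR-21-FLuc cells are incubated with test compounds (final up to about 40uM) for 48 hours; firefly luciferase signal is then imaged following reagent-mediated lysis.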
GLA inh pH 4.5: alpha-galactosidase A (human) inhibition, pH 4.5; P06280; purified enzyme, 4-MU-alpha-Gal fluorescence, pH 4.5; activity change, negative = inhibition, % at 105 µM; AID 1467; 230,000 tested, under 10 active; inconclusive = small, poorly fitted or top-dose-only inhibition, or a rising curve; inactive = flat fitted curve, though single readings scatter; no compound was filed as active;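 further: 0% = full activity with enzyme and -100% = basal without enzyme; dose as in the result columns while the protocol names 77 µM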
Target sequence (P06280 whole entry, looked up): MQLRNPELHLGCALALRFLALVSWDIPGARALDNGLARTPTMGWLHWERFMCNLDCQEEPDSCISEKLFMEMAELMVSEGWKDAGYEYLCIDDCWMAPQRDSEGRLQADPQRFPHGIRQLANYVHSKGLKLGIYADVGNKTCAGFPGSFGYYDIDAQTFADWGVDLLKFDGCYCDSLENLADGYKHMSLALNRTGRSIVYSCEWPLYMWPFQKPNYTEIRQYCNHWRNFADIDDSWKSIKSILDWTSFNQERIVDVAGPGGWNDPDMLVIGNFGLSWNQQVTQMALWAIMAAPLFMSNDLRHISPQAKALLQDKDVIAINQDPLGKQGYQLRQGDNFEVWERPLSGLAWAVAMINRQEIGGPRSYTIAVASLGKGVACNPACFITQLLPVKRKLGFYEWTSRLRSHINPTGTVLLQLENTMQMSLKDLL
* hit, by the source's call; & = joins results of further samples.

For O=C(COC(=O)c1ccco1)Nc1ccccc1 the results were Rango dissoc inh 13.8%, Rango complex inh 1.5%, miR-21 FLuc -6.1% and GLA inh pH 4.5 -4.8.
COc1ccc2[nH]c3c(c2c1)CCN1C(=O)C(CC(=O)NCCCn2ccnc2)C[C@H](C(=O)N2CCCCC2)[C@@]31C (some centres not stated) was read as Rango dissoc inh -16.5% and Rango complex inh -0.3%.
Screening CN1C(=O)C(CC(=O)Nc2ccc3c(c2)Cc2ccccc2-3)N(C)C1=O (configuration not stated) returned Rango dissoc inh -4.0%, Rango complex inh -3.4%, miR-21 FLuc -5.1% and GLA inh pH 4.5 -9.5.
CN(C)S(=O)(=O)c1cccc(NC(=O)/C=C/c2ccc(S(=O)(=O)N3CCOCC3)cc2)c1 was read as Rango dissoc inh 0.8% and Rango complex inh 0.2%.
CCc1ccc(OCCCC(=O)Nc2ccc(N3CCCCC3)cc2)cc1 was read as Rango dissoc inh -2.6%, Rango complex inh inconclusive, miR-21 FLuc -2.1% and GLA inh pH 4.5 -4.0.
Screening COc1ccc2cc(C(=O)C3CCCN(C(=O)c4cc(=O)n(C)c(=O)n4C)C3)ccc2c1 (configuration not stated) returned Rango dissoc inh -5.2%, Rango complex inh 0.2%, miR-21 FLuc -14.5% and GLA inh pH 4.5 5.4.
Screening COCCC(=O)N1CCC(Oc2ccc(C(=O)NCc3csc(C)n3)cc2)CC1 returned Rango dissoc inh -14.3%, Rango complex inh 5.9% and miR-21 FLuc -3.4%.
For COC(=O)c1sc(-c2ccc(C(C)(C)C)cc2)cc1NC(=O)CSCC(=O)O the results were Rango dissoc inh 0.6%, Rango complex inh -0.8%, miR-21 FLuc -49.1% and GLA inh pH 4.5 -6.9.
O=C(NCC(c1ccc(F)cc1)N1CCOCC1)c1cccnc1Sc1ccccc1 (configuration not stated) was read as Rango dissoc inh 5.6% and Rango complex inh -2.2%.
Screening COc1ccccc1NC(=O)CSc1nnnn1-c1ccc2c(c1)OCO2 returned Rango dissoc inh -8.9%, Rango complex inh 2.0%, miR-21 FLuc -12.4% and GLA inh pH 4.5 -0.4.
Screening CCC(=O)Nc1c(-c2cccs2)c(=O)c2ccccc2n1C returned Rango dissoc inh 6.8%, Rango complex inh 1.0%, miR-21 FLuc -1.0% and GLA inh pH 4.5 8.7.
For COc1ccc(C(=O)N(C)C2(C)CCS(=O)(=O)C2)cc1OC (configuration not stated) the results were Rango dissoc inh -1.6% and Rango complex inh 1.6%.
For CCCCn1c(N)c(N(Cc2ccccc2OC)C(=O)CCC(C)C)c(=O)[nH]c1=O the results were Rango dissoc inh 1.9%, Rango complex inh -2.2% and miR-21 FLuc -1.8%.
Screening Cn1c(-c2ccccc2)cnc1NCc1ccccc1 returned Rango dissoc inh 7.3%, Rango complex inh -1.8% and miR-21 FLuc -7.9%.
COc1ccccc1-c1nnn(CC#N)n1 was read as Rango dissoc inh -7.2%, Rango complex inh 0.2%, miR-21 FLuc 4.0% and GLA inh pH 4.5 -5.2.
COC(C[C@H]1O[C@@H]1[C@@H](O)[C@H](C)OCc1ccccc1)OC was read as Rango dissoc inh 19.4%, Rango complex inh 0.7%, miR-21 FLuc -3.0% and GLA inh pH 4.5 0.6.
Screening CSC[C@H](NC(=O)COc1cc2c(c3oc(=O)cc(C)c13)CCC(C)(C)O2)C(=O)O returned Rango dissoc inh 1.4%, Rango complex inh -3.4% and miR-21 FLuc -2.8%.
Screening O=C1[C@H](O)[C@@H](O)C(=O)N1Cc1ccccc1 returned Rango dissoc inh 5.3%, Rango complex inh 4.6% and miR-21 FLuc 1.4%.
For CCOC(=O)N1CCC(Nc2c(NCCCN(CC)CC)c(=O)c2=O)CC1 the results were Rango dissoc inh 26.4%, Rango complex inh -1.4%, miR-21 FLuc -0.2% and GLA inh pH 4.5 -5.6.
CCNC(=S)Nc1cc(OCC)c(NC(=O)c2ccco2)cc1OCC was read as Rango dissoc inh 9.1%, Rango complex inh -0.4%, miR-21 FLuc -4.8% and GLA inh pH 4.5 5.4.
CC(C)C[C@H]1CN=C(Nc2ccccc2)N1CCc1ccc(F)cc1 was read as Rango dissoc inh -5.5% and Rango complex inh 4.8%.
`Cc1cc(C)c(S(=O)(=O)N2CCC3(CC2)OCCN3S(=O)(=O)c2cccs2)c(C)c1` gave Rango dissoc inh -16.0% and Rango complex inh 1.0%.
For COc1ccc(NC(=O)c2c(C)nn(-c3ccccc3)c2Cl)cc1 the results were Rango dissoc inh -18.9%, Rango complex inh 0.5% and miR-21 FLuc -37.0%.
Screening COc1ccc(CNC(=O)CN2C(=O)CSc3ccc(S(=O)(=O)N4CCOCC4)cc32)c(OC)c1 returned Rango dissoc inh -1.2%, Rango complex inh 0.9% and miR-21 FLuc 2.0%&-5.8%.
Screening O=C(NC12CC3CC(CC(C3)C1)C2)c1cc(F)c(F)cc1Cl returned Rango dissoc inh 3.9%, Rango complex inh -4.1% and miR-21 FLuc -0.9%.
`C/C(=N\OCC(=O)NC12CC3CC(CC(C3)C1)C2)c1cc2ccccc2o1` gave Rango dissoc inh -11.9%, Rango complex inh 0.2%, miR-21 FLuc -5.1% and GLA inh pH 4.5 -9.0.
Screening O=C(O)C1C2C=CC(CC2)C1C(=O)O (configuration not stated) returned Rango dissoc inh -5.2%, Rango complex inh -2.8%, miR-21 FLuc 1.6% and GLA inh pH 4.5 -3.6.
For CC1CN(S(=O)(=O)c2cc(C(=O)NCc3ccncc3)ccc2Cl)CC(C)O1 (configuration not stated) the results were Rango dissoc inh -16.2% and Rango complex inh 4.9%.
Screening O=C(NNC(=O)c1cccc(O)c1)Nc1ccc([N+](=O)[O-])cc1 returned Rango dissoc inh -5.3%, Rango complex inh -2.6%, miR-21 FLuc 5.3% and GLA inh pH 4.5 -2.0.
Screening O=C(NC1CCCCC1)NC12CC3CC(CC(C3)C1)C2 returned Rango dissoc inh -8.2%, Rango complex inh 0.4%, miR-21 FLuc -2.3% and GLA inh pH 4.5 -2.1.
Nc1nc2ccccc2n1CCN1CCCC1 was read as Rango dissoc inh 1.3%, Rango complex inh inconclusive, miR-21 FLuc -15.2% and GLA inh pH 4.5 -0.9.
For O=C(NCCCN1CCOCC1)c1cccc(NC(=O)c2ccccc2)c1 the results were Rango dissoc inh 7.7% and Rango complex inh -3.5%.
Screening COCCN(C(=S)Nc1ccccc1OC)C1CCN(C(C)C)CC1 returned Rango dissoc inh -7.5%, Rango complex inh 1.5%, miR-21 FLuc -0.6% and GLA inh pH 4.5 -17.1.
COC(=O)NCC(c1ccco1)N1CCN(c2ccc(OC)cc2)CC1 (configuration not stated) was read as Rango dissoc inh 21.6%, Rango complex inh 0.3%, miR-21 FLuc -1.9% and GLA inh pH 4.5 1.1.
COc1ccc(/C=N/NC(=O)CN(CCc2ccccc2)S(=O)(=O)c2ccc(NC(C)=O)cc2)cc1OC was read as Rango dissoc inh 1.2%, Rango complex inh 1.5%, miR-21 FLuc -24.8% and GLA inh pH 4.5 -3.2.
CC(C)(Oc1ccc(C2CC2(Cl)Cl)cc1)C(=O)O (configuration not stated) was read as Rango dissoc inh 9.2%, Rango complex inh -1.3% and GLA inh pH 4.5 -19.2.
For OC(CNCc1ccc(Cl)cc1)COc1ccccc1 (configuration not stated) the results were Rango dissoc inh 14.1%, Rango complex inh 2.3% and miR-21 FLuc -9.1%.
C=CCn1c(SCc2nc3scc(-c4ccccc4)c3c(=O)[nH]2)nnc1-c1ccccc1F was read as Rango dissoc inh -1.7%, Rango complex inh -3.1%, miR-21 FLuc 9.5% and GLA inh pH 4.5 1.1.
`CCN1CCN(C(=O)c2ccc3nc(-c4ccccc4)c(-c4ccccc4)nc3c2)CC1` gave Rango dissoc inh 7.6%, Rango complex inh -0.3% and miR-21 FLuc 3.8%.
COc1ccccc1OCCNC(=O)C(CCSC)NS(=O)(=O)c1ccccc1F (configuration not stated) was read as Rango dissoc inh -1.0% and Rango complex inh -1.2%.

Pulled one by one from the entries so far, 2 records:
`Cc1cc(C)c(S(=O)(=O)N2CCC3(CC2)OCCN3S(=O)(=O)c2cccs2)c(C)c1` gave Rango dissoc inh -16.0% and Rango complex inh 1.0%.
Nc1nc2ccccc2n1CCN1CCCC1 was read as Rango dissoc inh 1.3%, Rango complex inh inconclusive, miR-21 FLuc -15.2% and GLA inh pH 4.5 -0.9.

New compounds follow:
COc1cc(OC)cc(-c2c(C#Cc3ccsc3)c3cc(-c4ccc(N(C)C)nc4)ccc3n2C)c1 was read as Rango dissoc inh 16.6% and Rango complex inh -1.5%.
Screening CC1CCCC(NC(=O)CCNC(=O)c2ccc(Cl)cc2)C1C (configuration not stated) returned Rango dissoc inh -27.7% and Rango complex inh 0.8%.
For CC1CN(Cc2nc3c(c(=O)n(C)c(=O)n3C)n2CC(=O)c2ccccc2)CC(C)O1 (configuration not stated) the results were Rango dissoc inh -5.4%, Rango complex inh 2.1%, miR-21 FLuc -4.4% and GLA inh pH 4.5 -3.5.
For COc1cccc(C(=O)Nc2nc3c(c(=O)[nH]2)CCCC3)c1 the results were Rango dissoc inh -6.9%, Rango complex inh 1.3%, miR-21 FLuc -22.1% and GLA inh pH 4.5 0.7.
Screening CCOc1ccc(S(=O)(=O)N2CCC(C(=O)N3CCCCCC3)CC2)cc1Cl returned Rango dissoc inh -8.3%, Rango complex inh 0.8% and miR-21 FLuc 9.3%.
C/C(=N/NC(=O)c1cccs1)c1cccs1 was read as Rango dissoc inh -4.9%, Rango complex inh 4.3%, miR-21 FLuc -74.7% and GLA inh pH 4.5 -8.5.
For Cc1ccc(-n2ncc3c2CC(C)(C)CC3NC(=O)CCc2c(C)noc2C)cc1 (configuration not stated) the results were Rango dissoc inh -3.3%, Rango complex inh -1.2% and miR-21 FLuc -1.4%.
`COc1ccc(OC)c(NS(=O)(=O)c2c(C(=O)N3CCCCCC3)c(C)n(C)c2C)c1` gave Rango dissoc inh -4.7%, Rango complex inh 1.2% and miR-21 FLuc -3.9%.
Screening CC1CCCCC12NC(=O)N(CC(=O)N(C)Cc1nc3ccccc3c(=O)[nH]1)C2=O (configuration not stated) returned Rango dissoc inh -22.6% and Rango complex inh 2.1%.
`COc1nc(C)ccc1-c1noc(-c2cccs2)n1` gave Rango dissoc inh 13.8%, Rango complex inh -2.4%, miR-21 FLuc -71.8% and GLA inh pH 4.5 6.2.
COc1ccc(S(=O)(=O)Nc2ccccc2C(=O)N2CCOCC2)cc1F was read as Rango dissoc inh 5.0%, Rango complex inh 0.1% and miR-21 FLuc 1.8%.
COC(=O)Cn1c(=O)sc2ccccc21 was read as Rango dissoc inh -8.2%, Rango complex inh 11.6%, miR-21 FLuc 0.5% and GLA inh pH 4.5 -3.6.
`CC(C)C(OC(=O)C1=Cc2ccccc2OC1)C(=O)NCC1CCCO1` (configuration not stated) gave Rango dissoc inh inconclusive and Rango complex inh inconclusive.
CCN1C(=O)c2ccccc2S(=O)c2ccc(C(=O)NC3CC3)cc21 (configuration not stated) was read as Rango dissoc inh -5.4%, Rango complex inh 2.9%, miR-21 FLuc -10.5% and GLA inh pH 4.5 5.8.
For O=C(Nc1cccc(NC(=O)c2cccnc2)c1)c1ccccc1 the results were Rango dissoc inh 5.6%, Rango complex inh 2.8% and miR-21 FLuc -2.2%.
`CCC(C)(C)n1nnnc1C(c1cccnc1)N1CCCc2ccccc21` (configuration not stated) gave Rango dissoc inh 3.0%, Rango complex inh -3.8%, miR-21 FLuc -5.3% and GLA inh pH 4.5 -18.7.
For O=C(OC1CCOC1=O)c1cc(S(=O)(=O)N2CCOCC2)c(Cl)cc1Cl (configuration not stated) the results were Rango dissoc inh 9.6% and Rango complex inh -1.4%.
Screening OCC1OC(n2cnc3c(SCc4ccccc4)nc(F)nc32)C(O)C1O (configuration not stated) returned Rango dissoc inh -11.8% and Rango complex inh -3.7%.
`O=C(NC1CC1)c1ccc2c(c1)ncn2C1CCCC1` gave Rango dissoc inh -12.4%, Rango complex inh -7.1%, miR-21 FLuc -39.2% and GLA inh pH 4.5 4.8.
`O=C(CCc1c[nH]c2ccccc12)OCc1cccc([N+](=O)[O-])c1` gave Rango dissoc inh 9.4%, Rango complex inh 5.4% and miR-21 FLuc 6.9%.
For CNc1ccc(/C=C2\CSc3ccccc3C2=O)cc1[N+](=O)[O-] the results were Rango dissoc inh -9.6%, Rango complex inh 4.7%, miR-21 FLuc -10.9% and GLA inh pH 4.5 -1.4.

The list is partial; rates above refer to the full screens.
